Mtb growth: M. tuberculosis H37Rv growth inhibitors, H37Rv strain (AID 1626); M. tuberculosis H37Rv growth inhibition; higher % means a stronger effect; inhibition, % at 10 µM, or IC50 in µM where a hit was titrated; 0.95% of 220,000 active;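 active = confirmed in a dose series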;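 also: bacteria incubated seven days before Alamar blue readout; 0% = bacteria only wells and 100% = bacteria with antibiotic wells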
Mtb betalactam: beta-lactam sensitization of Mtb H37Rv. M. tuberculosis H37Rv growth with meropenem, percent inhibition; hits of this screen are not shown here. inhibition, % at 25 µM. 0.27% of 330,000 active. AID 434955;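 active = about 74% or more and at least 40 points above the plate without the antibiotic, then above 30% in a dose series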;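 also: growth measured after seven days incubation then overnight dye step; 0% = bacteria only wells and 100% = bacteria with antibiotic; twin plates without the antibiotic show which effects depend on it; some results filed as inactive read as strong as hits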
RecA intein inh: blocks M. tuberculosis RecA intein splicing; P9WHJ3; cell-free RecA intein splicing, fluorescence; inhibition, %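 (about 9 µM by stock and volumes)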; 0.75% of 290,000 active; AID 2221; in the data active = inhibition above about 30%;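 also: 0% = vehicle wells and 100% = reference inhibitor control wells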
Target sequence (P9WHJ3 whole entry, looked up): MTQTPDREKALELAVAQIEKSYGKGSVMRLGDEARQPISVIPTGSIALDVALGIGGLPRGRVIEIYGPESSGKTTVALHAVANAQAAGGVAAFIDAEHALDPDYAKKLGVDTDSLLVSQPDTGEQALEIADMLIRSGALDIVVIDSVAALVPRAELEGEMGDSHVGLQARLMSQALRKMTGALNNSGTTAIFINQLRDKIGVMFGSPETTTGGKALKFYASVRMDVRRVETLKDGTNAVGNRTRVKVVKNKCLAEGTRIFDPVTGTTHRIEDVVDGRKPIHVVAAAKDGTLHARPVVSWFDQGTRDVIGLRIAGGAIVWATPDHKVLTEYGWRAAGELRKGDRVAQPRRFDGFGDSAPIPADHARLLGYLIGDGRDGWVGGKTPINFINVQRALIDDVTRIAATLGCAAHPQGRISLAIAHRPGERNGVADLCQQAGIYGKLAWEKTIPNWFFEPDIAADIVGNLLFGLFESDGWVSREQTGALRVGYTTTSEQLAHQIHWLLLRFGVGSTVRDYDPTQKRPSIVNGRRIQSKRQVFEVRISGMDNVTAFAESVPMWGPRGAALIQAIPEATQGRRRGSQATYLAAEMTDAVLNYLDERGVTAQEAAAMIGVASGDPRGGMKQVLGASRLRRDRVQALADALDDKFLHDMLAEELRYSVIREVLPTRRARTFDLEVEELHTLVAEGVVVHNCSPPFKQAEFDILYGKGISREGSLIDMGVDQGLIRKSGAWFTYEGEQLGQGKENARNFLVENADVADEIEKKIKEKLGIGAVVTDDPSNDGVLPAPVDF
YopH inh: blocks Yersinia enterocolitica YopH tyrosine phosphatase. 0.16% of 140,000 active. inhibition, %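 (about 10 µM by stock and volumes)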. fluorescence Ex485/Em525. AID 898;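 active = inhibition of 50% or more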;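 also: controls were vehicle for no effect and minimum signal wells for full effect; inactives centre near -20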
Arbovirus anti: blocks arbovirus infection; arbovirus infection cell-based antiviral screen; inhibition, % at 10 µM; 0.37% of 200,000 active; AID 1251;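 active = inhibition from about 30%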;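 also: bluetongue infection of BSR cells; cell survival read as ATP light after 72 h; 0% = infected wells without compound and 100% = uninfected wells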
Arbovirus anti repeat: also measured in Arbovirus anti; calls as there; inhibition, %; measured here: 10K subset replicate screen; many hits read low in the repeat;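 first of two repeat runs on a subset; 0% = infected and 100% = uninfected wells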
* marks the source's active call; other numbers are inactive results; / = no result given. Some of the compounds tested; the hit share may differ from the screen's.

SMILES | Mtb growth | Mtb betalactam | RecA intein inh | YopH inh | Arbovirus anti | others
Cc1cc(C(=O)CSc2n[nH]c(-c3ccccc3F)n2)c(C)n1Cc1cccs1 | -10% | -8 | 11 | -6 | 20
Cc1ccc(CN2CCN(Cc3cnc(C)s3)CC2CCO)o1 (stereo not given) | -1% | -11 | -0.5 | / | 0
CCOC(=O)N1CCC(=NNc2ccc(S(=O)(=O)N3CCOCC3)cc2[N+](=O)[O-])CC1 | -10% | -3 | -0.9 | -16 | 0
C[C@@H](C(=O)NCc1ccc(S(C)(=O)=O)cc1)[C@@H]1C[C@@]1(C)[C@@H](NC(=O)OCc1ccccc1)c1ccccc1 | 7% | 8 | / | -17 | -6
O=C(COc1ccc(F)cc1)N1CCCCCCC1 | / | 7 | 0.3 | / | /
O=C(N/N=C/c1cccnc1)c1cc(C2CC2)nc2ccccc12 | / | -7 | 1.8 | / | /
C=CCn1c(SCC(=O)Nc2c(C)cccc2C)nnc1-c1cnccn1 | -4% | 0 | 1.5 | -47 | -4
O=C(Nc1ccc(N2CCOCC2)cc1)c1c(F)cccc1Cl | -1% | 0 | 0.1 | / | 5
CC1CCC(C(C)C)C(OP(N)(=O)c2ccccc2)C1 (stereo not given) | -6% | -5 | 2.3 | -29 | 1
CCCNC(=O)COC(=O)c1ccc(S(=O)(=O)N2CCCCCC2)cc1 | 4% | 7 | -0.5 | -36 | 4
OCCCn1c(C2CCCN2c2nc(-c3ccc(F)cc3)cs2)nc2cc(Cl)c(N3CCCCC3)cc21 (stereo not given) | -4% | 44 | 0.8 | / | /
O=C(Oc1cc(=O)oc2c1c(=O)n1c3c(cccc23)CC1)c1ccc(F)cc1 | 53% | 62 | -2.3 | / | /

Part of the list above in order of heavy-atom count, smallest number first:
SMILES | Mtb growth | Mtb betalactam | RecA intein inh | YopH inh | Arbovirus anti | others
O=C(COc1ccc(F)cc1)N1CCCCCCC1 | / | 7 | 0.3 | / | /
CC1CCC(C(C)C)C(OP(N)(=O)c2ccccc2)C1 (stereo not given) | -6% | -5 | 2.3 | -29 | 1
Cc1ccc(CN2CCN(Cc3cnc(C)s3)CC2CCO)o1 (stereo not given) | -1% | -11 | -0.5 | / | 0
O=C(N/N=C/c1cccnc1)c1cc(C2CC2)nc2ccccc12 | / | -7 | 1.8 | / | /
O=C(Oc1cc(=O)oc2c1c(=O)n1c3c(cccc23)CC1)c1ccc(F)cc1 | 53% | 62 | -2.3 | / | /
Cc1cc(C(=O)CSc2n[nH]c(-c3ccccc3F)n2)c(C)n1Cc1cccs1 | -10% | -8 | 11 | -6 | 20
C[C@@H](C(=O)NCc1ccc(S(C)(=O)=O)cc1)[C@@H]1C[C@@]1(C)[C@@H](NC(=O)OCc1ccccc1)c1ccccc1 | 7% | 8 | / | -17 | -6

The main list resumes, starting 2 compounds before the break.
SMILES | Mtb growth | Mtb betalactam | RecA intein inh | YopH inh | Arbovirus anti | others
OCCCn1c(C2CCCN2c2nc(-c3ccc(F)cc3)cs2)nc2cc(Cl)c(N3CCCCC3)cc21 (stereo not given) | -4% | 44 | 0.8 | / | /
O=C(Oc1cc(=O)oc2c1c(=O)n1c3c(cccc23)CC1)c1ccc(F)cc1 | 53% | 62 | -2.3 | / | /
Cc1cccc(N2CCN(S(=O)(=O)c3c(C)[nH]c(=O)[nH]c3=O)CC2)c1C | 4% | 0 | -0.3 | 3 | 7
Cn1ccnc1C(=O)c1ccc(NN)c([N+](=O)[O-])c1 | -1% | -3 | -2.0 | / | -2
Cc1nn(CC(=O)N2CCN(c3ccc(Cl)cc3)CC2)c(=O)c2cccn12 | / | 0 | 7.6 | / | /
CCOc1ccccc1N(C)C(=O)Cn1ncc2c([nH]c3ccccc32)c1=O | / | 3 | 0.6 | / | /
Cc1ccnc(Nc2nc(-c3c(C)nc4sccn34)cs2)c1 | 19% | 77 | 6.0 | -5 | 0
CC(CC(=O)N1CCN(c2cccc(Cl)c2)CC1)S(=O)(=O)c1ccc2c(c1)NC(=O)CO2 (stereo not given) | / | -1 | -1.2 | / | /
Cc1cc2c(cc3c(=O)n(CC(=O)NCCCN4CC(C)CC(C)C4)ncn32)s1 (stereo not given) | / | -4 | -1.3 | / | /
COc1ccc(OCC(O)CN2C(=O)NC(C)(C)C2=O)cc1 (stereo not given) | 3% | 6 | 1.9 | -34 | -2
Cc1cc(C(=O)CN2C(=O)NC3(CCCCC3)C2=O)c(C)n1Cc1ccc2c(c1)OCO2 | -3% | 19 | 1.1 | -46 | -16
COC(=O)C(Cc1c[nH]c2ccccc12)NC(C)=O (stereo not given) | -4% | -1 | 0.5 | -21 | 0
COc1cc(C(=O)NC(c2ccccc2)c2ccccc2)cc(OC)c1OC | / | -9 | -1.0 | / | /
CC[n+]1c(/C=C2/C=C(C)CC(C)C2)sc2ccccc21 (stereo not given) | -2% | -5 | / | / | -9
c1ccc(CNCCc2c[nH]c3ccccc23)cc1 | / | -9 | 0.4 | / | /
CC(=O)c1cccc(NC(=O)CC2S/C(=N/N=C/c3cccs3)NC2=O)c1 (stereo not given) | -5% | 0 | 1.4 | / | -2
O=C(CC1C(=O)NCCN1C(=O)c1ccccc1)Nc1cc(Cl)ccc1Cl (stereo not given) | / | -3 | 0.9 | / | /
Cn1c(=O)c2c(nc(N/N=C/c3cccnc3)n2Cc2ccccc2)n(C)c1=O | -8% | -2 | -2.0 | / | /
CCCOc1cccc(C(=O)Nc2cccc(NC(=O)c3ccco3)c2)c1 | / | 21 | -0.7 | -44 | -9 | Arbovirus anti repeat=-16
Cc1cc(S(=O)(=O)Nc2noc3ccccc23)ccc1F | / | -4 | -2.6 | / | /
Cc1cc(C(=O)OC(C)C(=O)N2CCc3ccccc32)ccc1[N+](=O)[O-] (stereo not given) | / | -2 | 1.9 | / | /
c1ccc(-c2cc3c(N4CCCCC4)ncnc3s2)cc1 | 1% | 24 | 0.1 | / | 7
COc1cc([N+](=O)[O-])ccc1-c1ccc(C(=O)Nc2ccc(NC(C)=O)cc2)o1 | -11% | -4 | -1.6 | -2 | -18
CCc1ccccc1NC(=O)NNC(=O)CCc1ccc(OC)cc1 | / | 0 | 0.4 | / | /
COC(=O)CN(c1nc(C)c(Br)c(OC)n1)S(=O)(=O)c1ccccc1 | / | 0 | 7.3 | / | /
Cc1cccc(C)c1NC(=O)c1c[nH]c2ccccc12 | / | 5 | 0.5 | / | /
COc1ccccc1/C=N/NS(=O)(=O)c1ccccc1 | / | 7 | -1.4 | / | /
CCOC(=O)N1CCN(C2CCCN(C(=O)c3cccc(Cl)c3)C2)CC1 (stereo not given) | / | -3 | 1.7 | / | /
Cc1ccc(OCC(=O)Nc2ccc(N3CCCC3)cc2)cc1C | 7% | 56 | 3.5 | -47 | -3
Cn1c(N)c(C(=O)CSc2nc3ccccc3c(=O)n2Cc2ccccc2)c(=O)n(C)c1=O | -11% | 4 | 0.4 | / | /
O=C(CSc1nc2ccccc2s1)Nc1nccs1 | 1% | 9 | -0.2 | -6 | -4
O=C(c1ccncc1)N1N=C(C2CC2)CC1(O)C(F)(F)F (stereo not given) | -6% | 58 | 1.1 | / | 3
Cc1cc2c(cc1C)C(c1cccc(F)c1)CC(=O)N2 (stereo not given) | / | 3 | -0.1 | / | /
COc1ccc(CN2CCN(C(=O)Cc3ccccc3)CC2)c(OC)c1 | 2% | 2 | 1.5 | -19 | 8
COc1ccccc1-c1c(C(F)(F)F)oc2cc(OC(=O)c3ccccc3[N+](=O)[O-])ccc2c1=O | 7% | -16 | 5.9 | -25 | 8
COc1ccc(N(CC(O)CN2CCOCC2)S(=O)(=O)c2ccc(C)cc2)cc1 (stereo not given) | / | 9 | 0.2 | / | /
Cc1ccn(Cc2n[nH]c(=S)n2Cc2ccccc2)n1 | -10% | -12 | -1.5 | -25 | 2
CC1(C)CC(c2csc(N)n2)CCO1 (stereo not given) | -6% | -5 | -19 | -20 | 2
C/C(=N/OC(=O)c1ccc(C(F)(F)F)cc1)c1oc(C)nc1C | -6% | -9 | 1.8 | / | /
CC(C)c1[nH]nc2c1C1(CCN(Cc3ccccc3)CC1)C(C#N)=C(N)O2 | -1% | 1 | 68* | -18 | -2
CCCn1c(N)c(N(C)C)c(=O)n(CC(=O)Nc2ccc(OC(F)(F)F)cc2)c1=O | -4% | -18 | -6.7 | -30 | -7
Cn1c(N)c(C(=O)CSc2ccccn2)c(=O)n(C)c1=O | -8% | 4 | -2.5 | -1 | 6
Cc1ccc(OCc2ccc(C(=O)NNC(=S)NCC3CCCO3)o2)c([N+](=O)[O-])c1 (stereo not given) | / | -2 | -2.4 | / | /
CCOc1ccc(CCNC(=O)COC(=O)/C=C/c2ccc(OCC#N)c(OC)c2)cc1OCC | 1% | 7 | 0.3 | -24 | 4
COC(C[C@H]1O[C@@H]1C(=O)[C@H](C)OCc1ccccc1)OC | -7% | 2 | 5.6 | / | /
O=C(COc1ccc2c3c(c(=O)oc2c1)CCCC3)N1CCN(c2ccccc2)CC1 | / | 0 | -1.5 | / | /
C/C(=N/NC(=O)c1ccc(C)s1)c1cccnc1 | / | 9 | -0.1 | / | /
CCOc1ccc(/C=N/NC(=O)CCC(=O)Nc2ccc(F)cc2)cc1 | / | -4 | 0.0 | / | /
CCOC(=O)c1csc(NC(=O)c2cccs2)n1 | / | 2 | -0.7 | / | /
COc1cccc(Nc2ncnc3c2cnn3C)c1 | 0% | 1 | 0.8 | -26 | -9

By substructure, the entries above containing a cyano group.
SMILES | Mtb growth | Mtb betalactam | RecA intein inh | YopH inh | Arbovirus anti | others
CC(C)c1[nH]nc2c1C1(CCN(Cc3ccccc3)CC1)C(C#N)=C(N)O2 | -1% | 1 | 68* | -18 | -2
CCOc1ccc(CCNC(=O)COC(=O)/C=C/c2ccc(OCC#N)c(OC)c2)cc1OCC | 1% | 7 | 0.3 | -24 | 4

Two consecutive compounds from above, for reference:
SMILES | Mtb growth | Mtb betalactam | RecA intein inh | YopH inh | Arbovirus anti | others
C/C(=N/OC(=O)c1ccc(C(F)(F)F)cc1)c1oc(C)nc1C | -6% | -9 | 1.8 | / | /
CC(C)c1[nH]nc2c1C1(CCN(Cc3ccccc3)CC1)C(C#N)=C(N)O2 | -1% | 1 | 68* | -18 | -2

(next part)
SMILES | Mtb growth | Mtb betalactam | RecA intein inh | YopH inh | Arbovirus anti | others
O=C(CN1CCC(c2nc3ccccc3s2)CC1)NCc1ccccc1 | -6% | -4 | 2.7 | -28 | 2
Nc1ccc(N2CCN(C(=O)c3ccco3)CC2)cc1 | -11% | 0 | -3.7 | 10 | -25
O=S(=O)(c1ccccc1)N(CC(O)CN1CCCC1)c1ccccc1 (stereo not given) | / | -4 | -1.5 | / | /
COc1ccccc1NC(=O)c1cc(C(=O)Nc2ccccc2OC)n(C)n1 | / | -1 | 3.5 | / | /
COC(=O)COc1ccc(S(=O)(=O)Nc2ccc(NC(C)=O)cc2)cc1C | -3% | -7 | 4.1 | -8 | 4
CC(C)CN1CN(S(=O)(=O)c2cccs2)c2nc3ccccc3nc21 | -10% | / | 0.4 | -22 | 4
O=C1CC(c2cc(-c3ccccc3)no2)C1 | / | -1 | -0.3 | / | /
O=S(=O)(c1ccccc1)c1nc(-c2ccco2)oc1NCCN1CCOCC1 | -3% | -11 | -0.9 | -21 | -2
Cc1c(C(=O)O)sc2ncn(C)c(=O)c12 | -6% | -2 | / | -101 | 13
C=CCn1c(C)cc(C2=NNC(=NCC)SC2)c1C | 2% | 18 | 4.7 | -28 | 4
CC(=O)Nc1ccc(N2CCN(Cc3ccccc3)CC2)cc1 | / | -9 | -0.9 | / | /
CC(C)c1ccc(CNNC(=O)c2ccccc2)cc1 | / | 8 | 21 | / | /
COc1ccc(-n2c(=O)cc(N3CC(C)OC(C)C3)[nH]c2=O)cc1 (stereo not given) | 1% | -4 | -2.1 | -128 | -3
O=C(CNC(=O)c1ccccc1O)N/N=C/c1ccccn1 | 3% | -3 | -1.1 | / | -3
Cc1ccc(NCc2nnc(SCC(=O)OC3CCCCC3)o2)c(C)c1 | 0.33µM* | 100 | 1.5 | -39 | 2
COc1ccc(-n2c(C)nn(C)c2=O)c(OC)c1 | -4% | 0 | 1.7 | -32 | 1
NC(=O)NCCCC(=O)OCC(=O)c1ccc2ccccc2c1 | 0% | -3 | -0.2 | / | 1
COc1ccc(C2SCCN2C(=O)c2ccc([N+](=O)[O-])cc2)cc1 (stereo not given) | -2% | -8 | -0.5 | / | 1
CCCn1cnc2c(c1=O)c1nc3ccccc3nc1n2CCc1ccccc1 | 1% | 2 | -0.4 | -15 | -8
CCOC(=O)c1c(C)c(C(=O)NCc2ccccn2)c(C)n1CC | 4% | -9 | -2.3 | -20 | 0
CCN(CC(=O)N1CCN(Cc2ccccc2)CC1)S(=O)(=O)c1ccccc1 | / | -6 | 0.5 | / | /
Cc1c2c(nc3ccccc13)CC(C)(C)CC2=O | 0% | 4 | 27 | / | 0
CC(=O)N1CCN(CC(=O)Nc2ccccc2Sc2ccccc2)CC1 | 27% | -1 | 0.4 | -6 | 10
O=C1COc2ccc(C(=O)COC(=O)c3ccccn3)cc2N1 | / | -10 | -0.3 | / | /
CC(C)C(=O)N=C1SC2CS(=O)(=O)CC2N1Cc1ccc(Cl)cc1 (stereo not given) | -3% | -6 | -3.9 | / | /

High-throughput results from PubChem BioAssay.
